High-throughput results deposited in PubChem BioAssay by National Center for Advancing Translational Sciences (NCATS).
miR-21 reporter = qHTS Assay for Modulators of miRNAs and/orActivators of miR-21; HeLa miR-21 FLuc reporter, luciferase, 48 h; AID 2288, 2010; Potency, µM (top dose mostly 38.3 µM), without a hit: at the highest dose reporter change, positive = more light; 340,000 tested, under 10 active; active = well fitted rising curve with a large enough effect; inconclusive = small, poorly fitted or top-dose-only effect; inactive = no such curve, though single readings can be large or run the other way;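 note: % of control where 0% means no effect; miR-21 action dims this reporter so a rising signal means less miR-21 action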
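Luminescence from a firefly luciferase reporter carrying a miR-21 binding site downstream, stably expressed under a CMV promoter in HeLa cells that make miR-21 endogenously, reports miRNA modulation after 48 h compound exposure up to approximately 40uM final.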
GLA inh pH 4.5 = qHTS Assay for Inhibitors of Human alpha-Galactosidase at pH 4.5. Alpha-galactosidase A (Homo sapiens), P06280. purified enzyme, 4-MU-alpha-Gal fluorescence, pH 4.5. activity change, negative = inhibition, % at 105 µM. 230,000 tested, under 10 active. AID 1467, 2008; inconclusive = small, poorly fitted or top-dose-only inhibition, or a rising curve; inactive = flat fitted curve, though single readings scatter; no compound was filed as active;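 note: 0% = full activity with enzyme and -100% = basal without enzyme; dose as in the result columns while the protocol names 77 µM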
Target sequence (P06280 whole entry, looked up): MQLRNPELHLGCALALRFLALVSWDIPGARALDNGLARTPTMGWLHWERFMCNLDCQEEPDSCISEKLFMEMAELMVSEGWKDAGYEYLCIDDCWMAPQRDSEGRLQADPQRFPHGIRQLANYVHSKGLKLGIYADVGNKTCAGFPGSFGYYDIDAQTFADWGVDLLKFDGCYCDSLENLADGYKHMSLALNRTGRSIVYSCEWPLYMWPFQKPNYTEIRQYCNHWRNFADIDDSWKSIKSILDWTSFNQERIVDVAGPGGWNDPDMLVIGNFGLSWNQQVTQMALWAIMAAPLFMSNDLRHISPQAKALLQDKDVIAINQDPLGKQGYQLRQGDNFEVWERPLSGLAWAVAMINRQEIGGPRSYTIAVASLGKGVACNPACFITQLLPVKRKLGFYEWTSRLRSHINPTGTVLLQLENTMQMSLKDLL
Rango complex inh = qHTS Assay for Inhibitors of Rango (Ran-regulated importin-beta cargo) - Importin beta complex formation; 340,000 compounds, 0.031% hits; AID 540263, 2011; Importin subunit beta-1 (Homo sapiens), Q14974; Rango CFP/YFP FRET sensor + importin beta, 45 min; Potency, µM (top dose mostly 92.2 µM), for the others: at the top dose inhibition of complex formation; active = rising FRET ratio curve, often small or poorly fitted; inconclusive = mostly compound fluorescence or quenching in the first reads; inactive = flat curves in all reads;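 note: potency is the fitted concentration of half-maximal effect; 0% = DMSO wells and 100% = buffer wells lacking importin beta; nearly all actives have a fitted effect of over 15% in size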
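Inhibition scored from the CFP 486 nm/YFP 530 nm FRET ratio 45 min after adding 0.125 microM importin beta to 50 nM Rango biosensor preincubated 5 min with compound (room temperature, PBS with DTT, Tween-20, BSA). No-importin wells as positive control.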
Rango dissoc inh = qHTS Assay for Inhibitors of RanGTP induced Rango (Ran-regulated importin-beta cargo) - Importin beta complex dissociation; Snurportin-1 (Homo sapiens) + GTP-binding nuclear protein Ran (Homo sapiens) + Importin …; Biochemical FRET Rango-importin beta, RanGTP-induced dissociation; Potency, µM (top dose mostly 46.1 µM), for inactives: top-dose activity change, negative = inhibition; 340,000 compounds, 0.071% hits; AID 540253, 2011; active means falling FRET ratio curve, often poorly fitted, with flat reads before Ran was added; inconclusive means other falling curves, or compound fluorescence or quenching; inactive means flat or rising ratio curve;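 note: potency is the fitted concentration of half-maximal effect; % of control where 0% means no effect; nearly all actives have a fitted effect of over 45% in size; -100% = wells without RanGTP and RCC1; the record marks most hits as doubtful in a second field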
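Compounds preincubate 5 min with complex of recombinant Rango and importin beta in PBS with 1 mM DTT. Ran (0.6 uM) loaded with 2 mM GTP plus 0.2 uM RCC1 starts dissociation; FRET is recorded 45 min later.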
* marks the source's active call; other numbers are inactive results; ? = inconclusive; nt = no result given; & = joins results of further samples. An excerpt; rates above refer to the full screens.

SMILES	miR-21 reporter	GLA inh pH 4.5	Rango complex inh	Rango dissoc inh
COc1cccc(CNC(=O)CCC2CCCN(c3cc(C)nc(N)n3)C2)c1 (centres undefined)	-3.9%	-1.0	-0.7%	-3.9%
COc1cc2c(cc1OC)CN(C(=O)CSc1n[nH]c(N)n1)CC2	-2.7%	-9.1	0.7%	-12.6%
CCOc1ccccc1N=Cc1c(O)c2ccccc2oc1=O	-10.7%	nt	?	?
CCOC(=O)Cn1ncc(-c2ccccc2)c1N	-44.4%	-2.8	6.2%	-2.1%
Cc1ccc(-c2cc(C(=O)NN=C3CCCC3)c3ccccc3n2)cc1	-7.7%	2.3	-1.4%	7.3%
COc1ccc(N2C(=O)C(CC(=O)O)S/C2=N\N=C\c2cccs2)cc1 (centres undefined)	-9.2%	nt	-3.5%	1.3%
C[C@]12CC[C@@H]3c4ccc(O)cc4CC[C@H]3[C@@H]1CCC2=O	-16.1%	-1.3&-2.9	-1.8%	-8.7%
COc1ccc(CC(=O)Nc2ccccc2N2CCCC2)cc1	0.3%	nt	3.4%	4.4%
C[C@@H]1CC[C@@]23COC(=O)C2=CCC[C@@H]3[C@@]1(C)CC/C(=C/CO)CO	nt	nt	-1.7%	-0.8%
CC(=O)Nc1ccc(NC(=O)CSc2ccc3nnc(-c4ccccn4)n3n2)cc1	-4.5%	nt	-1.0%	5.8%
O=C(Nc1cccnc1)OC1CCCCC1	-35.6%	?	-1.9%	11.5%
c1ccc2[nH]c(SCc3cn4cccnc4n3)nc2c1	-33.9%	-1.3	-3.6%	6.0%
Cc1ccc(NC(=O)CN(C)C(=O)CSc2nc(C)cc(C)n2)cc1	nt	nt	0.3%	5.4%
COc1cccc(-c2cc(C(=O)N3CCc4ccccc4C3)[nH]n2)c1	-29.3%	nt	-0.2%	-9.9%
O=C(C1CCCO1)N1CCN(C(=S)Nc2cc(F)cc(F)c2)CC1 (centres undefined)	-0.3%	nt	-0.3%	-0.1%
Cc1cc(NC(=O)CSc2nnc(CNc3cccc(C(F)(F)F)c3)n2Cc2ccco2)no1	-6.6%	4.1	0.5%	-17.3%
CC1CC2CCCC(O)=C2C(=O)O1 (centres undefined)	nt	nt	1.1%	6.4%
COc1cccc(C(=O)Oc2cc(N)n(S(=O)(=O)c3ccc(C)cc3)n2)c1OC	-0.3%	2.7	-3.1%	-5.1%
CCN(CC)C(=O)CSC1c2ccccc2C(=O)N1c1ccccc1 (centres undefined)	-2.5%	-17.6	-0.1%	0.4%
COc1ccc2cc(C(=O)Nc3ccc(Cl)cc3)sc(=O)c2c1OC	-4.2%	-4.0	-4.5%	-12.0%
CCOc1ccc(C(=O)CCC(=O)NCC(=O)Nc2c(C)cccc2C)cc1	nt	nt	3.1%	0.8%
CC(C)NC(=O)NC(=O)COC(=O)/C=C/c1ccccc1[N+](=O)[O-]	-0.1%	1.2	-0.6%	28.0%
COC(=O)c1sc(SC)c(S(=O)(=O)C(C)C)c1N	-15.0%	-2.6	-1.2%	-10.9%
CCCCOc1ccc(C(=O)Nn2c(-c3cccs3)nc3ccccc3c2=O)cc1	-0.6%	?	-4.2%	0.7%
COc1ccc(CC(=O)N/N=C(\C)c2cccs2)cc1	-24.2%	nt	0.4%	11.2%

The list goes on, overlapping the part above by six compounds.
SMILES	miR-21 reporter	GLA inh pH 4.5	Rango complex inh	Rango dissoc inh
COc1ccc2cc(C(=O)Nc3ccc(Cl)cc3)sc(=O)c2c1OC	-4.2%	-4.0	-4.5%	-12.0%
CCOc1ccc(C(=O)CCC(=O)NCC(=O)Nc2c(C)cccc2C)cc1	nt	nt	3.1%	0.8%
CC(C)NC(=O)NC(=O)COC(=O)/C=C/c1ccccc1[N+](=O)[O-]	-0.1%	1.2	-0.6%	28.0%
COC(=O)c1sc(SC)c(S(=O)(=O)C(C)C)c1N	-15.0%	-2.6	-1.2%	-10.9%
CCCCOc1ccc(C(=O)Nn2c(-c3cccs3)nc3ccccc3c2=O)cc1	-0.6%	?	-4.2%	0.7%
COc1ccc(CC(=O)N/N=C(\C)c2cccs2)cc1	-24.2%	nt	0.4%	11.2%
CCCCSc1[nH]c(=O)c(C(=O)OCC)cc1C#N	-1.5%	-4.2	5.0%	4.9%
COc1ccc(OC)c(CN2CCN(CCCc3ccccc3)C(CCO)C2)c1 (centres undefined)	6.0%	nt	-3.7%	16.1%
c1ccc2c(c1)CCCn1nnnc1-2	-0.3%	5.9	1.0%	1.2%
Cc1ccc(NC(=O)CCCCCN2C(=O)[C@@H]3Cc4ccccc4CN3C2=O)cc1	7.9%	nt	-0.6%	16.9%
CC1CCN(C(=O)c2ccc(S(=O)(=O)Cc3ccccc3F)c([N+](=O)[O-])c2)CC1	-2.8%	3.0	-2.0%	4.2%
O=C(NC1CCN(C(=O)Nc2cccc(F)c2)CC1)C1CCCCC1	-3.8%	1.0	5.2%	2.7%
CN(Cc1ncc[nH]1)C(=O)CC1C(=O)NCCN1Cc1c(F)cccc1Cl (centres undefined)	-1.4%	7.3	0.4%	7.9%
CCO[C@@H]1OC(C(=O)N2CCN(C)CC2)=C[C@H](c2csc3ccccc23)[C@H]1CCCO	-4.2%	5.0	0.1%	-6.3%
Cc1ccc(S(=O)(=O)N2CCN(C(=O)COc3ccc(-c4nnco4)cc3)CC2)cc1	-3.5%	2.8	-1.8%	-15.1%
O=C(N/N=C/c1cccc([N+](=O)[O-])c1)C1CC(=O)N(c2ccc(F)cc2)C1 (centres undefined)	-11.1%	0.0	-3.7%	17.4%
CCC1CCCCN1S(=O)(=O)c1ccc(C(=O)Nc2nnc(C3CC3)o2)cc1 (centres undefined)	26.7%	nt	-0.1%	1.3%
O=C(NC1=NCCS1)c1ccc(Br)s1	-52.5%	-5.3	4.2%	-4.9%
O=C(COc1ccccc1)Nc1ccc(C(=O)N2CCCC2)cc1	-17.4%	nt	-3.7%	1.1%
CC(=O)c1ccc(N2CCN(C(=O)c3ccc4nc[nH]c4c3)CC2)cc1	-3.1%	0.0	-1.2%	0.2%
COc1ccc(Cc2nc(-c3cccs3)no2)cc1	-57.2%	-11.4	0.6%	-17.3%
O=C1COc2ccc(C(=O)COC(=O)Cc3ccsc3)cc2N1	-1.4%	-5.6	5.3%	1.9%
COc1ccc(C(C(=O)NC(C)(C)C)N(CCc2ccccc2)C(=O)CCC(=O)Nc2cc(C)on2)cc1 (centres undefined)	-18.4%	nt	8.2%	25.9%
COc1nonc1NCn1nc(C)cc1C	-5.2%	-2.3	0.9%	-4.2%
OCCC1CN(Cc2ccc(Oc3ncccn3)cc2)CCN1Cc1ccc(F)c(F)c1 (centres undefined)	-1.9%	-6.9	0.7%	2.5%
Cc1ccc(C)c(OCCC(=O)OCC(=O)Nc2cccc(S(=O)(=O)N3CCCC3)c2)c1	nt	nt	-0.5%	-4.0%
O=C(COc1coc(CN2CCN(c3ccccc3)CC2)cc1=O)N1CCc2ccccc21	nt	nt	-2.5%	-1.8%
Cc1ccc(NC(=O)c2cc(S(=O)(=O)N3CCCC3)cn2C)cc1	4.8%	nt	-2.4%	-11.6%
O=C(c1nc2ccccc2s1)N1CCSCC1	-39.9%	-8.0	0.6%	0.5%
CC(NC(=O)COc1ccccc1)C(=O)N1CCN(c2ccccc2)CC1 (centres undefined)	nt	nt	0.2%	0.2%
Cc1cccc(N(O)C(=O)Nc2cccc(Cl)c2)c1	-24.4%	nt	-0.2%	-2.2%
SMILES	miR-21 reporter	GLA inh pH 4.5	Rango complex inh	Rango dissoc inh
COc1cc(C2NC(=O)NC(C)=C2C(=O)OC(C)C)ccc1OC(=O)c1ccco1 (centres undefined)	-14.8%	0.9	-1.4%	-1.8%
CC1(C)CC(=O)N(c2cc(Cl)ccc2Cl)C(=O)C1	-0.3%	nt	-1.4%	2.6%
Nc1nnc(SCC(=O)Nc2cccc(S(=O)(=O)N3CCCCC3)c2)s1	nt	nt	0.5%	1.1%
CCOc1ccc(CCNC(=O)Cn2ccc3ccccc3c2=O)cc1OCC	0.1%	1.8	1.8%	-18.7%
COc1cccc(-n2c(Cc3cc(=O)[nH]c(=O)[nH]3)nnc2SCC(=O)NC2CCCC2)c1	-2.3%	2.7	?	-13.1%
C/C(=N/NS(=O)(=O)c1cc(C)ccc1C)c1ccc2c(c1)OCO2	-0.9%	nt	-3.3%	6.3%
O=C(Nc1ncn[nH]1)c1cc(S(=O)(=O)Nc2cccc(C(F)(F)F)c2)ccc1Cl	-24.2%	4.3	3.3%	-8.4%
Cn1cc(S(=O)(=O)CC(=O)N2CCc3ccccc32)c2ccccc21	-10.3%	-9.4	-4.7%	3.9%
Cc1cccc(-n2cnc(C(=O)Nc3cccnc3)c2)n1	-46.2%	-5.4	0.3%	-8.0%
Nc1nc(SCC(=O)Nc2ccccc2)[nH]c(=O)c1NC(=O)c1cccs1	-1.8%	-7.6	0.2%	?
COC(=O)Nc1sc2c(c1C(=O)N1CCOCC1)CCC(C)C2 (centres undefined)	-4.3%	3.6	-2.4%	0.2%
c1ccc(CSc2nccc(-c3ccco3)n2)cc1	nt	nt	-1.0%	-7.3%
Cc1cc(-c2csc3ncnc(N4CCN(C)CC4)c23)cc(C)c1C	-7.7%	nt	-5.7%	-4.3%
Cc1csc(NC(=O)CS(=O)(=O)Cc2ccccc2)n1	4.1%	9.8	1.5%	5.0%
CCCCNC(=O)CNC(=S)N(Cc1ccccc1)Cc1cccnc1	-8.3%	8.8	0.5%	-22.0%
CCOc1ccc(NC(=O)CSc2nc(=O)n(CCCN3CCOCC3)c3c2CCC3)cc1	nt	nt	-1.8%	-10.0%
COc1ccc(NC(=O)C(CC(=O)O)Cc2ccc(Cl)cc2)cc1 (centres undefined)	-3.9%	nt	-0.2%	-9.0%
O=C(CCN1C(=O)c2ccccc2C1=O)Nc1cccc(O)c1	-2.3%	nt	0.7%	12.2%
COC(=O)c1cnc(Oc2ccc(NC(=O)NC(=O)c3c(F)cccc3Cl)cc2)cc1C(F)(F)F	15.6%	-21.0	-4.7%	21.4%
O=C(O)c1ccc(CN2C(=O)c3ccccc3S2(=O)=O)cc1	-7.5%	-2.8	5.7%	0.9%
Cc1cc2ccccc2n1CCNC(=O)C(C)(C)C	-9.8%	-5.3	?	?
Cc1nc2ccccc2c2c1CC(C(C)(Cl)Br)O2 (centres undefined)	16.9%	-1.0	0.0%	0.7%
Cn1c(C(=O)OCC(=O)NCc2ccc(F)cc2)cc2occc21	nt	nt	0.1%	-9.3%
CCOc1ccccc1OCC(=O)NN1Cc2ccccc2C1=N	1.2%	-3.9	2.5%	-7.6%
COc1ccc(S(=O)(=O)N(CCc2ccccc2)CC(N)=O)cc1	2.0%	-8.5	2.8%	2.1%
SMILES	miR-21 reporter	GLA inh pH 4.5	Rango complex inh	Rango dissoc inh
Cc1cc(NC(=S)NC(=O)c2ccccc2)ccc1-c1cc2ccccc2oc1=O	-5.4%	1.1	4.6%	16.1%
COc1ccc(C2CC(c3ccccc3)=NN2c2ccc(/C=N/NC(=O)c3ccncc3)cc2)cc1 (centres undefined)	-8.3%	-3.8	?	?
COc1cccc(C2/C(=C(/O)c3ccccc3)C(=O)C(=O)N2Cc2ccco2)c1 (centres undefined)	-3.8%	-0.2	2.9%	-17.8%
Cc1ccc2c(c1)C=CC(C)(C)S2(=O)=O	0.1%	-1.1	0.9%	-12.0%
CCCN(CCC)C(=O)CC(c1ccccc1)c1cc(C)ccc1O (centres undefined)	2.3%	-3.1	3.1%	-0.7%
CCOC(=O)c1ccc2[nH]c(C)c(CCC(C)=O)c(=O)c2c1	1.7%	-4.3	-1.0%	3.4%
COc1ccccc1NCC(=O)Nc1cc(S(=O)(=O)N2CCOCC2)ccc1N1CCOCC1	-2.4%	5.2	1.2%	0.1%
